TRPML1 blocker: inhibitors of human TRPML1 channel; TRPML1-inducible cells, Ca2+ dye fluorescence, FDSS; hits give low values; inhibition of EC80 agonist-evoked calcium signal; Q9GZU1; 0.02% of 390,000 active; activity change, negative = inhibition, % (concentration not given with the values); in the data active means activity change below about -50%; inconclusive means about -30% to -50%; inactive means above about -30%;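 further: stimulus is agonist 54-4 at its EC80 concentration; on the % scale 0 is the no-effect control and ±100 the full control effect; compound concentration not given in the record; the text of the record puts the active cut at -80%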
Target sequence (Q9GZU1 whole entry, looked up): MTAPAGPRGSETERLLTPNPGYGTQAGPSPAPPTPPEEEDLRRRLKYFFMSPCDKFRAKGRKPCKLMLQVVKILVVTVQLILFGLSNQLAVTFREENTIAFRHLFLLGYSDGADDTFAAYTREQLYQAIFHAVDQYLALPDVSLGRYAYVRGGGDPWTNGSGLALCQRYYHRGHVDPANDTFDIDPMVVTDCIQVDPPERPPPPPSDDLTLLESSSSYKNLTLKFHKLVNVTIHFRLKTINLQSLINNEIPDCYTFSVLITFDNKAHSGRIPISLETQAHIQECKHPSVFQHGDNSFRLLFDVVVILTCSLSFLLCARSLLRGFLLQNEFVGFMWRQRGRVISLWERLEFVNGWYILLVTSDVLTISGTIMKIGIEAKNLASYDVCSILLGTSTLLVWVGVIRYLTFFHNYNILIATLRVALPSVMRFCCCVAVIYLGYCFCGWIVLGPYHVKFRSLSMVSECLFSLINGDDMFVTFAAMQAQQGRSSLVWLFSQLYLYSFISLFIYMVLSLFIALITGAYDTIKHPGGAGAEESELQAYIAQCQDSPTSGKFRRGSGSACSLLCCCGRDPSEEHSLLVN
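TRPML1-DL cells, Tet-induced overnight (~16 h, 37 °C) at 1,500 cells/well, were loaded with Ca8 no-wash dye plus quencher for 45-90 min at room temperature. Compounds were pinned during FDSS kinetic reading; agonist 54-4 at EC80 (4 uM final) then added.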
gsp ag: agonists of gsp mutant (McCune-Albright syndrome); gsp mutant cells, cAMP HTRF, 30 min; control for the full effect not named in the record; Potency, µM (top dose mostly 76.9 µM), without a hit: at the highest dose activation (cAMP increase), most hits filed as activators; 0.13% of 340,000 active; AID 624287; active = well fitted activation curve with a large enough effect; inconclusive = small, poorly fitted or top-dose-only effect, or another doubt; inactive = no such curve, though single readings can be large or run the other way; cell line not stated here;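 further: phosphodiesterase inhibitor Ro 20-1724 added with compounds to block cAMP breakdown; potency means the concentration at half of the fitted maximal effect; nearly all actives have a fitted effect of over 60% in size; about a fifth of the inactives were tested at one dose only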
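Cells in DMEM/10% FBS with G418 were pretreated with compounds in DMSO plus […] (300 uM stock) for 30 min at 37C. cAMP was measured by HTRF (cAMP-d2 plus anti-cAMP antibody-K) after 30 min at room temperature.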
Menin-MLL FL inh: menin-MLL binding inhibition, fluorescein peptide; AID 1766; Fluorescence polarization, fluorescein-MLL peptide displacement from menin; FP activity change, % at 61.4 µM; 290,000 tested, under 10 active; inconclusive = falling polarisation curve, or a change in total fluorescence; inactive = total fluorescence flat and polarisation flat or rising; no compound was filed as active; the % refers to the polarisation; negative = inhibition;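 further: % of control where 0% means no effect; inhibitors lower the polarisation; unlabelled MLL peptide was the positive control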
gsp antag: gsp mutant antagonism | gsp-mutant cells, cAMP HTRF, 30 min; control for the full effect not named in the record | Potency, µM (series often up to 76.9 µM), for the others: at the top dose activity change, negative = inhibition, hits mostly inhibitors | 0.4% of 340,000 active | AID 624288; active = falling curve of any shape with a large fitted effect; inconclusive = falling curve, mostly with a smaller effect; inactive = flat or rising curve; cell line not stated here;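 further: intracellular cAMP measured with PDE inhibitor Ro 20-1724 present during compound exposure; potency means the concentration at half of the fitted maximal effect; on the % scale 0 is the no-effect control and ±100 the full control effect; nearly all actives have a fitted effect of over 65% in size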
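HTRF cAMP measurement after 30 min RT detection following 30 min, 37C compound treatment alongside […] (added as 300 uM solution) in G418-selected cells seeded at 2000/well and grown 16–24 h.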
ClpP mod: qHTS Assay for Activators of ClpP; Potency, µM (highest dose often 57.5 µM), for inactives: at the top dose activity change, negative = active; purified B. subtilis ClpP, FRET peptide cleavage, 20 min; ATP-dependent Clp protease proteolytic subunit (Bacillus subtilis (strain 168)), P80244; 1.9% of 340,000 active; active = well fitted falling curve with a large enough effect; inconclusive = small, poorly fitted or top-dose-only effect; inactive = no such curve, though single readings can be large or run the other way; further: potency means the concentration at half of the fitted maximal effect; the source files actives as falling curves though it sought activators and does not explain the sign; nearly all actives have a fitted effect of over 65% in size; many hits overshoot -100%
Target sequence (P80244 whole entry, looked up): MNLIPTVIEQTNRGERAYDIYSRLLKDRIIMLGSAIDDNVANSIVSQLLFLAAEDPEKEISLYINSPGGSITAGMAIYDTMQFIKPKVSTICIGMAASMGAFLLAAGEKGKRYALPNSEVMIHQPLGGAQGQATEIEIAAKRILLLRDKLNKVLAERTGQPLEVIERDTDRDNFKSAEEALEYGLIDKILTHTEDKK
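FRET quenching reversal measured ClpP activation: 10 microg/mL B. subtilis ClpP at pH 8 with the FRET-FV decapeptide, read at 430 nm after 320 nm excitation. The 20-min minus 0-min signal was scaled between DMSO/no-enzyme wells and ADEP (5.8 microM final).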
TRPML1 agonist: agonists of human TRPML1 channel | AID 624414 | activation, % (test concentration not listed) | 0.12% of 410,000 active | TRPML1-expressing cells, Ca2+ dye fluorescence, FDSS; host cell line not named in the record; reference of the full effect not given here | Q9GZU1; in the data active = activation above about 50%; inconclusive = about 30% to 50%; inactive = below about 30%; further: 0% is about no effect; the text of the record puts the active cut at 80%
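Tetracycline-induced TRPML1-DL cells are seeded and incubated overnight before loading with a no-wash Ca2+ dye and quencher. Agonist activity is taken from the 110 s fluorescence read following compound pin-transfer on an FDSS, before EC80 54-4 challenge.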
An asterisk follows results filed as active; ? = inconclusive; . = not tested or not shown; & = joins results of further samples; [ ] = another dose, or the depositor's remark.

Structure	Menin-MLL FL inh	TRPML1 blocker	ClpP mod	gsp antag	gsp ag	TRPML1 agonist
COc1cccc2cc(-c3nc(-c4ccccc4F)no3)c(=O)oc12	.	57	1.0%	.	.	0.0
O=C(O)c1cc(O)ccc1-c1ccc(O)cc1	3.4	0	-6.2%	2%	-15%	0.8
CC(CNC(=O)C1CCCN(S(=O)(=O)N2CCOCC2)C1)c1ccccc1 (stereo not drawn)	.	-2	0.8%	14%	?	0.0
Cc1ccc([N+](=O)[O-])cc1Nc1nc(N2CCCC2)nc(N2CCCC2)n1	0.5	6	-0.4%	8%	-9%[15.4 µM]	0.2
Cc1ccc(C2Nc3ccccc3-n3c(-c4ccccc4)c4c(=O)n(C)c(=O)n(C)c4c32)cc1 (stereo not drawn)	.	-4	-8.8%	.	.	-0.6
CC(NS(=O)(=O)c1ccc2c(c1)CCN2C(=O)CCCC(=O)O)c1ccccc1 (stereo not drawn)	.	-1	0.2%	.	.	-0.4
COc1ccc(CCN2CC(C(=O)OCC(=O)c3c(N)n(CC(C)C)c(=O)n(C)c3=O)CC2=O)cc1OC (stereo not drawn)	.	-4	-3.3%	.	-3%	-0.2
CCCCn1nc2cc(C(=O)NCc3ccc(OC)cc3)ccc2c1OCC	-1.7	17	4.1%	-8%	23%	0.3
CCCCCCC1CCC(C(=O)NC(CCSC)C(=O)NC(C(=O)OC)C(C)C)CC1 (stereo not drawn)	3.5	20	1.7%	10%	1%	0.2
COc1cc2c(cc1OC)-c1cc(N3CCc4ccccc43)nc(=O)n1CC2	2.0	23	.	11%	23%	-0.8
Cc1sc2ncn(CC(=O)Nc3cccc(S(N)(=O)=O)c3)c(=O)c2c1-c1ccccc1	1.2	52	-2.6%	0%	-35%[inhibitor]	1.1
Cc1ccccc1-n1nc2c(c1NC(=O)CC(C)C)CS(=O)C2 (stereo not drawn)	4.6	12	4.3%	6%	5%	-0.4
COc1cccc(NC(=S)N(Cc2ccc(C(=O)O)cc2)Cc2ccc(OC)c(OC)c2)c1	11	-21	.	-12%	-34%[inhibitor]	0.8
COc1ccc(NC(=O)CN(C)C(=O)CN2C(=O)NC3(CCCC3)C2=O)cc1	.	-3	-0.3%	7%	-4%	0.0
Cc1n[nH]c(=O)c2c(NC(=O)CSc3c(Cl)cccc3Cl)oc(C)c12	.	12	-15%	-1%	-32%[inhibitor]	1.7
O=C(CC1SC(=NCCc2ccccc2)N(/N=C/c2cccs2)C1=O)Nc1ccc(Cl)cc1 (stereo not drawn)	3.6	-6	-0.3%	-12%	6%[15.4 µM]	-0.2
COc1ccc(C(=O)c2ccccc2)cc1	-2.3	19	.	7%	-3%[15.4 µM]	-0.3
C=C(C)C1CC=C(C)/C(=N/NC(=O)CCC(=O)Nc2ccccc2Cl)C1 (stereo not drawn)	1.7	?	.	0%	?	-0.3
Cc1cccc(NC(=O)c2sc3nc(N)c(C#N)cc3c2N)c1	3.4	5	?	8%	?	0.7
CN(CCNC(=O)C1CC(=O)N(C2CCCC2)C1)Cc1ccccc1 (stereo not drawn)	.	-5	0.6%	10%	0%	-0.6

Structure	Menin-MLL FL inh	TRPML1 blocker	ClpP mod	gsp antag	gsp ag	TRPML1 agonist
O=C(CSc1c(F)c(F)cc(F)c1F)Nc1ccc(C2SCCS2)cc1	2.4	11	-1.3%	6%	-20%	-0.4
C=CCNC(=O)/C(C#N)=C/c1c(N2CC(C)OC(C)C2)nc2ccccn2c1=O (stereo not drawn)	.	-12	0.7%	12%	7%[15.4 µM]	-0.6
CCN(CC)c1ccc(NC(=S)NC(=O)c2cccs2)cc1	-1.1	-16	1.5%	-9%	-50%[inhibitor]	0.8
COc1ccccc1NCc1nnc(SCC(=O)N/N=C/c2ccco2)n1-c1ccc(Cl)cc1Cl	-1.7	4	0.3%	4%	-14%	-0.6
COc1ccc(C(=O)NCCCN(C)CCCNC(=O)c2ccc(OC)cc2)cc1	-0.9	0	2.4%	17%	?	0.9
O=C1NCCC/C1=N/Nc1ccc(F)cc1	-1.3	7	.	2%	-8%[15.4 µM]	-0.1
O=[N+]([O-])c1ccc(C2=Nn3cnnc3SC2)cc1	0.6	-12	.	2%	-40%[inhibitor]	0.4
COc1cccc(C(=O)O/N=C(\N)c2ccncc2)c1	-0.1	8	1.9%	7%	4%	-0.6
COC(=O)c1cc(NC(=O)CC2C(=O)NCCN2C(=O)c2ccccc2)cc(C(=O)OC)c1 (stereo not drawn)	-0.4	-17	-4.7%	6%	0%	-0.4
N#Cc1ccccc1NC(=O)CNc1ccc(Cl)c(C(F)(F)F)c1	6.3	10	1.0%	6%	4%	2.5
CN(C)C(=O)COC(=O)c1ccc(S(=O)(=O)NCc2ccco2)cc1	-2.0	.	-0.6%	-1%	?	.
COc1ccc(NC(=O)c2cc(Cl)ccc2Cl)c([N+](=O)[O-])c1	-0.5	-1	28µM*	6%	?	1.1
COc1ccc(C2CC(=O)Oc3c(C(CCN4CCCCC4)c4ccc(N(C)C)cc4)c(OC)cc(OC)c32)cc1 (stereo not drawn)	-2.1&2.2	-3&24	0.8%	2%	8%	0.9&-0.5
COc1cccc(C(=O)c2cn(CC(=O)NCc3ccccc3Cl)c3nc(C)ccc3c2=O)c1	.	-10	0.7%	.	.	2.0
CC(=O)c1ccc(N2CCN(CN3C(=O)CC4(CCCC4)C3=O)CC2)c(F)c1	3.4	5	.	2%	?	-0.1
COc1cccc(NC(=O)c2ccccc2-c2nc(-c3ccc(F)cc3)no2)c1	3.3	-1	1.9%	-34%	-1%	2.4
CCc1cnc2c(c1SCC(=O)Nc1cc(Cl)ccc1OC)c(=O)n(C)c(=O)n2C	.	7	0.1%	.	.	-0.1
CC1(C)C2CCC(C2)C1(C)NC(=O)CNCc1cccs1 (stereo not drawn)	1.1	18	1.4%	-8%	11%	2.6
Cc1ccccc1OCC(=O)OC1CCN(C)CC1	-3.4	-6	-0.8%	7%	0%	1.0
N/C(=N\OC(=O)CCCOc1ccccc1)c1ccc(Br)cc1	-0.9	-5	-3.9%	-5%	?	0.6

Structure	Menin-MLL FL inh	TRPML1 blocker	ClpP mod	gsp antag	gsp ag	TRPML1 agonist
Cc1ccc(S(=O)(=O)N2C[C@H]3[C@H]4C(=O)N(c5ccccc5)C(=O)[C@H]4C[C@H](OC(=O)NCc4ccccc4)[C@@]3(O)C2)cc1	.	2	0.3%	.	-47%[inhibitor]	0.2
CCCC(=O)Nc1cc(OC)c(NC(=S)Nc2cccc(C)c2)cc1OC	.	3	0.9%	.	?	0.7
Cc1cc(C)cc(NC(=O)C[n+]2ccccc2)c1	1.1	-9	.	12%	-50%[inhibitor]	0.9
CN(C)/C=C/C(=O)c1ncc(C(F)(F)F)cc1Cl	0.6	-18	-0.7%	1%	12%[15.4 µM]	1.6
O=C1C=C(c2cccc(Cl)c2O)C[C@@H](c2ccc3c(c2)OCO3)C1	.	-2	0.2%	-4%	14%	2.6
Cc1ccc(CNC(=O)C2CCCN2S(=O)(=O)c2ccc(F)cc2)cc1 (stereo not drawn)	-0.7	-25	-1.1%	3%	1%[15.4 µM]	-0.9
Cc1ccc(S(=O)(=O)N(C)C)cc1NC(=O)CSc1ncc(C(F)(F)F)cc1Cl	-0.5	2	0.7%	-19%	-11%	1.6
Cc1ccc(C(=O)C2=C(O)C(=O)N(CCCN(C)C)C23C(=O)N(C)c2ccccc23)o1 (stereo not drawn)	0.0	16	-1.0%	2%	24%	0.4
Nc1c(N2CCOCC2)cc(Cl)c2nonc12	3.4	6	2.1%	7%	-3%	-0.4
CCc1noc(C)c1C(=O)Nc1ccc(-c2nnc3n2CCCCC3)cc1	.	6	-2.2%	7%	-6%	1.0
CCCCc1ncc(CN2CCC(CC3CCCCO3)(C(=O)OCC)CC2)[nH]1 (stereo not drawn)	1.8	-17	.	13%	-23%	0.3
Cc1ccc(OCC(=O)N(C)C2CCCCC2)c([N+](=O)[O-])n1	.	-4	0.1%	-3%	7%[15.4 µM]	0.8
NNC(=S)NC1CCCCC1	0.8	-5	-0.1%	0%	15%[15.4 µM]	-0.3
CCOC(=O)CN(C)C(=O)CCc1nnc(-c2ccsc2)o1	2.4	-2	.	10%	-42%	0.2
COc1ccc(-c2csc(-c3nc(-c4ccc(Br)s4)cs3)n2)cc1F	.	?	-2.2%	.	.	-0.6
O=C(COC(=O)c1ccc(F)cc1Cl)NC(=O)NC1CCCC1	.	-1	-0.7%	1%	-3%	-1.6
c1nc(N2CCOCC2)c2c3c(sc2n1)CCCC3	-1.0	3	-19%	-16%	-63%[inhibitor]	-0.6
CCCC(NS(=O)(=O)c1ccc(Br)cc1)C(=O)O (stereo not drawn)	2.7	2	-2.1%	-3%	-12%	-0.3
COc1ccc(C(C)(C)C)cc1NC(=O)CCCN1C(=O)NC(C)(C)C1=O	.	19	-0.6%	13%	-10%	-0.1
CC(=O)Nc1ccc(OCC(O)CN2CCN(c3ccc(F)cc3)CC2)cc1 (stereo not drawn)	-6.0	5	0.1%	-13%	-10%[15.4 µM]	-0.6

Structure	Menin-MLL FL inh	TRPML1 blocker	ClpP mod	gsp antag	gsp ag	TRPML1 agonist
Nc1c(C(=O)NCc2ccccc2)nnn1Cc1cccc(Cl)c1	0.6	-11	-0.4%	9%	11%	1.2
O=[N+]([O-])c1ccc(-n2nnnc2-c2ccccc2)c([N+](=O)[O-])c1	0.5	-7	-0.2%	8%	2%	0.0
O=C(O)C1CC=CCC1C(=O)NCCCCc1ccccc1 (stereo not drawn)	1.8	-9	.	10%	9%	-0.8
Cc1nn(CC(=O)Nc2ccc3c(c2)CCC3)c(C)c1[N+](=O)[O-]	.	9	0.2%	-17%	-1%	2.7
CCN(CC)Cc1csc(C(N)=O)c1	1.3	-4	1.5%	6%	23%	1.8
CN(CC(=O)NCc1ccccc1F)S(=O)(=O)c1ccc(Cl)cc1	2.6	-11	-4.3%	5%	-50%[inhibitor]	0.7
CC(C)(C)c1ccc(C(=O)N2CCCN(C(=O)c3ccc(C(C)(C)C)cc3)CC2)cc1	8.6	6	-8.2%	17%	-19%	0.8
CCS(=O)(=O)N1Cc2ccccc2CC1C(=O)NC(C)C12CC3CC(CC(C3)C1)C2 (stereo not drawn)	-1.0	20	-0.3%	-21%	1%	-0.1
Cc1cc(=O)oc2cc(OCC(=O)c3ccccc3)ccc12	4.8	-7	0.0%	-12%	31%[15.4 µM]	0.8
Cc1ccc(S(=O)(=O)NC(=O)N2CCCC(C)(C)C2)cc1	-4.9	10	-9.0%	8%	-30%[inhibitor]	-0.2

Source: PubChem BioAssay
